Screening data (PubChem)
VDR inhibitor: inhibitors of human vitamin D receptor | P11473 | VDR-SRC2-3 peptide fluorescence polarization, 2 h | Potency, µM, inactives show max response, negative = inhibition, hits mostly inhibitors | hit rate 0.93% among 400,000 | AID 504847; active = well fitted inhibition curve with a large enough effect; inconclusive = small, poorly fitted or top-dose-only effect, or another doubt; inactive = no such curve, though single readings can be large or run the other way; also: series mostly up to about 120 µM
Target sequence (P11473 whole entry, looked up): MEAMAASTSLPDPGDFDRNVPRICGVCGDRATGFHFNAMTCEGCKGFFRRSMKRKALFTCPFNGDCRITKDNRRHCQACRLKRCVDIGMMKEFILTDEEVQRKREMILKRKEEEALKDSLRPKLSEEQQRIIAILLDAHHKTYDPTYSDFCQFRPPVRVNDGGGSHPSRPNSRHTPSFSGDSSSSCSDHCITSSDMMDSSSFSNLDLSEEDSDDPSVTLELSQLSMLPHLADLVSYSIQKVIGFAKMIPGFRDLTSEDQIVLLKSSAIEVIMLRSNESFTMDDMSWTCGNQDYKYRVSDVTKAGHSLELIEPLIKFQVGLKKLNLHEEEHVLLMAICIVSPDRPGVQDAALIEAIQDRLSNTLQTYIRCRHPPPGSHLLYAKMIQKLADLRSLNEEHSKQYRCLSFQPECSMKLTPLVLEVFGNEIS
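Compounds are added to VDR with labelled SRC2-3 coactivator peptide and held 2 h at room temperature. Inhibition of the VDR–peptide interaction is then read as a change in fluorescence polarization.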
* marks the source's active call; other numbers are inactive results; ? = inconclusive; & = joins results of further samples. % is scaled to controls: 0 for no effect and ±100 for the full control effect; potency is read from the fitted curve at half-maximal effect.

Compound,VDR inhibitor
CC1CCc2c(sc3ncn4c(SCC(=O)NCc5ccco5)nnc4c23)C1 (stereo not drawn),11.5%
CCN(C(=O)CSc1nc2cc(C(=O)OC)ccc2c(=O)n1Cc1ccco1)c1cccc(C)c1,21.8%
COc1ccc(CCNC(=O)CCS(=O)(=O)Cc2ccccc2C)cc1OC,4.3%
CC(=O)c1ccc(Nc2nc3c(S(=O)(=O)c4ccccc4)nnn3c3ccc(Cl)cc23)cc1,-1.6%
CCn1c(SCC(=O)NC(=O)NCc2ccco2)nnc1-c1cccs1,7.3%
COc1ccc(CC(=O)NC(C)(C)C)cc1S(=O)(=O)N1CCOCC1,18.8%
O=C1CCc2cc(S(=O)(=O)NCc3ccc(F)cc3)cc3c2N1CC3,5.8%&9.0%
NC(C(=O)O)C(O)c1ccc(O)c(O)c1 (stereo not drawn),?
O=C(CC1Oc2ccccc2NC1=O)NCCCN1CCOCC1 (stereo not drawn),5.9%
COc1cccc(NS(=O)(=O)NC(=O)c2c(C)[nH]c3ccccc23)c1,7.1%
O=C1C=CC(=O)N1CCNc1ncc(C(F)(F)F)cc1Cl,22.4µM*
CC1=NNC(=O)C1CC(=O)N/N=C/C(Br)=C/c1ccccc1 (stereo not drawn),-22.0%
COc1ccc(-c2cc(=O)c3c(O)c(OC)c(O)cc3o2)cc1,-18.6%
CCc1cccc(NC(=O)c2cccc(S(=O)(=O)N3CCN(C)CC3)c2)c1,-0.5%
COc1ccc2c(c1)-c1nc(NC(=O)c3ccccc3F)sc1CC2,-2.9%
O=C(CSCCO)Nc1ccc(C23CC4CC(CC(C4)C2)C3)cc1,-1.5%
COc1cc(C(CC(=O)O)n2cnnn2)ccc1OC(C)C (stereo not drawn),-14.0%
CC(=O)c1sc(NC(=O)CN2C(=O)NC3(CCCC3)C2=O)nc1-c1ccccc1,-21.7%
COc1cc(C=Nc2ccccc2C(=O)Nc2ccccc2)cc(OC)c1OC,2.7%
CC(C)(C)[C@@H]1CCC(=O)N(CC[C@H](Sc2ccccc2)c2ccccc2)CC1,-12.4%
COc1ccc(C(=O)CNc2ccc3ccccc3c2)cc1,14.4%
C=CCNC(=O)C(C)N1c2cccc3cccc(c23)S1(=O)=O (stereo not drawn),0.1%
CN(Cc1ccccc1)C(=O)c1nc[nH]c1C(=O)N1CCN(c2ccccc2)CC1,16.2%
C/C(N)=C(/C#N)C(=O)COC(=O)c1oc2ccccc2c1COC(C)C,-14.3%
COc1ccc(Cn2c(C)nc3oc4cc(OC)ccc4c(=O)c3c2=O)cc1,-9.0%
COP(=O)(OC)C(Nc1cc(Cl)cc(Cl)c1)c1cccc(O)c1 (stereo not drawn),-4.3%
CN(C)c1ccc(NC(=O)c2ccc(N3CCOCC3)nc2)cc1,79.4µM*
Cc1cc(NC(=O)c2cc(-c3ccc(Cl)cc3)on2)n(-c2ccccc2)n1,-7.0%
c1csc(-c2nc(-c3ccncc3)no2)c1,-0.4%
CCOc1cccc(=O)c2c(C)n(Cc3ccccc3)c(C)c12,-20.6%
O=C(CN1CCN(CCO)CC1)Nc1ccccc1,-8.4%
CN(C)c1ncc2nc(-c3ccccc3)c(=O)n(CCc3ccccc3)c2n1,8.2%
C=CCOc1ccc(C(=O)/C=C2/C(=O)Nc3ccccc32)cc1,?
C[C@@H](/C=C/c1ccc2ccccc2c1)C1COC(=O)C[C@H]1O (stereo partly drawn),-13.2%
Cc1cc(=O)n(CC(=O)N2CCN(c3ccccc3F)CC2)c2c1c(C)nn2C,2.5%
Cc1ccc(C(C(=O)Nc2ccc3c(c2)OCO3)N(C)C(=O)/C=C\c2ccc3c(c2)OCO3)cc1 (stereo not drawn),-9.5%
O=C(CSc1nc(-c2ccccc2)c2ccccc2n1)Nc1ccc(F)cc1,7.0%
CN(C(=S)NC(=O)Cc1ccccc1)c1ccccc1,-27.9%
Cc1ccc(S(=O)(=O)NCCSc2nnnn2-c2ccccc2)cc1,-6.6%&-0.6%
CCc1nnc(SCC(=O)Nc2ccc3c(c2)OCO3)o1,14.5%
Cc1ccc(S(=O)(=O)N2CCN(C(=O)c3ccco3)CC2)cc1C,-1.8%
O=S(=O)(N/N=C/c1ccccc1OCc1ccc(Cl)cc1)c1ccccc1,-6.9%
O=[N+]([O-])c1cc(S(=O)(=O)Nc2ccc(Cl)cc2)ccc1N/N=C/c1ccncc1,1.3%
CCc1ccccc1NC(=O)CCC(=O)OCC(=O)c1ccc(-c2ccccc2)cc1,-1.0%
O=C(O)CC(Cc1ccccc1)C(=O)Nc1ccc([N+](=O)[O-])cc1 (stereo not drawn),-11.4%
O=C1CC(Sc2ncccn2)C(=O)N1c1ccccc1C(F)(F)F (stereo not drawn),-5.5%
COc1ccccc1N1CCN(C(c2cc3ccc(C)cc3[nH]c2=O)c2nnnn2C2CCCC2)CC1 (stereo not drawn),-15.7%
NC(Cc1ccc(O)c([N+](=O)[O-])c1)C(=O)O (stereo not drawn),-10.6%
CCN(C(=O)c1cnc(N2CCN(c3ncccn3)CC2)c2ccccc12)c1cccc(Cl)c1,9.6%
CC(C)NC(=O)c1ccc(COCC(F)(F)F)cc1,2.5%
COc1cc(C(=O)NC23CC4CC(CC(C4)C2)C3)cc(OC)c1OC,4.5%
O=C(CSC1=NC(=O)C(Cc2ccccc2)C(=O)N1)Nc1ncc(Br)cc1Br (stereo not drawn),11.6%
Cc1nn(C)c(C)c1CCNC(=O)Nc1ccccc1C(F)(F)F,5.9%
Cc1c(NC(=O)/C(=C/c2cccs2)c2cccs2)c(=O)n(-c2ccccc2)n1C,-4.3%
Cc1noc(C)c1S(=O)(=O)NCCc1ccc(S(N)(=O)=O)cc1,12.1%
COc1ccc(NC(=O)CN(C)S(=O)(=O)c2ccc3c(c2)NC(=O)CS3)cc1,12.8%
CCSc1nnc2c(n1)OC1(CCCC1)Nc1ccccc1-2,-9.0%
CCn1cc([N+](=O)[O-])c(C(=O)N2N=C(c3ccc4ccccc4c3)CC2c2ccccc2O)n1 (stereo not drawn),-10.1%
CN(C)C(CNC(=O)c1cc(S(=O)(=O)N(C)c2ccc(F)cc2)ccc1Cl)c1ccco1 (stereo not drawn),-1.9%
CC(C)CCNC(=O)c1onc(CSc2ccccc2)c1C(=O)NCCC(C)C,-13.8%

Continued:
molecule | VDR inhibitor
CCOc1ccccc1CNC(=O)CCc1cn(C)c2ccccc12 | -7.9%&3.7%
COCCOC(=O)C1=C(C)NC(=O)NC1c1cn(-c2ccccc2)nc1-c1ccccc1 (stereo not drawn) | 17.0%
COc1ccc(C(C)NCCC(c2ccc(OC(C)C)cc2)c2ccccc2OC)cc1 (stereo not drawn) | -26.3%
O=S(=O)(c1ccc(F)cc1)N1CCN(CCOc2ccccc2)CC1 | -19.6%
CCCC(=O)c1cc2c(cc1NC(=O)CC)OCCO2 | -0.4%
CCCCOC(=O)CCn1[nH]c(=O)c2ccccc2c1=O | -5.4%
CC[C@H](C)[C@@H](NC(=O)O[C@H]1C(=O)c2ccc(OC)cc2O[C@@H]1c1ccc2c(c1)OCO2)C(=O)OC | 2.6%&1.5%
CN1CCN(c2ccc(NC(=O)c3ccc(C#N)cc3F)cc2Cl)CC1 | 4.2%
COc1ccccc1CNC(=O)CN1C(=O)CSc2c1c(C)nn2-c1ccccc1 | 16.5%
Nc1nc(=O)n(C2CCCO2)cc1Br (stereo not drawn) | 3.6%
CC(C)[C@H](NC(=O)N1CC(=O)Nc2ccccc21)C(=O)Nc1nccs1 | 15.2%
N#Cc1ccc(C2=CC(=O)C[C@H](c3ccc(F)cc3)C2)cc1 | -5.5%
CCc1cccc(C)c1NC(=O)CCn1nc(C)c2c(C)n(-c3ccccc3)nc2c1=O | -0.3%
Cc1ccc(-c2nnc(-c3ccc(Br)cc3)o2)o1 | 15.5%
CCN(CC)C(=O)Cn1c(=O)nc(-c2ccccc2F)c2cc(Cl)ccc21 | 11.0%
O=C(/C=C/c1ccc(S(=O)(=O)N2CCOCC2)cc1)NCc1ccccc1 | -15.2%
O=C(Nc1cccc(Cl)c1Cl)C1CCN(C(=O)c2cccs2)CC1 | -6.3%
CCOc1ccccc1C1CC(=O)NC(SCC(=O)Nc2nccs2)=C1C#N (stereo not drawn) | -15.6%
Cc1ccc(CSc2ncc(Cl)c(C(=O)NCCc3ccc(S(N)(=O)=O)cc3)n2)cc1 | 4.6%
Cc1csc2nc(-c3cccc(NS(C)(=O)=O)c3)cn12 | 12.6%
COc1ccc(C(CNC(=O)Cc2ccccc2F)N2CCCCC2)cc1 (stereo not drawn) | -29.1%
COc1ccc(C2C(C#N)=C(SC)NC3=C2C(=O)CC(C)(C)C3)cc1 (stereo not drawn) | -23.5%
CCCCS(=O)CC(COc1ccc(Cl)cc1)OC(=O)c1ccccc1 (stereo not drawn) | 10.3%
NC(=O)c1nsc(C(=O)N(Cc2ccco2)C(C(=O)NC2CCCC2)c2ccc(O)cc2)c1N (stereo not drawn) | -4.2%

A run of entries taken from the entries so far, for reference:
molecule | VDR inhibitor
CCc1cccc(C)c1NC(=O)CCn1nc(C)c2c(C)n(-c3ccccc3)nc2c1=O | -0.3%
Cc1ccc(-c2nnc(-c3ccc(Br)cc3)o2)o1 | 15.5%

Marked active in VDR inhibitor (from the list above):
molecule | VDR inhibitor
O=C1C=CC(=O)N1CCNc1ncc(C(F)(F)F)cc1Cl | 22.4µM*
CN(C)c1ccc(NC(=O)c2ccc(N3CCOCC3)nc2)cc1 | 79.4µM*

(more compounds)
molecule | VDR inhibitor
COC(=O)c1cc(OC)c(OC)cc1NC(=O)c1ccc(C)cc1 | 4.9%
O=C(NC1CCCCC1)C(c1cccs1)N(C(=O)C(F)(F)F)c1ccccc1 (stereo not drawn) | 8.8%
CC12CCC(C(=O)NNc3ccc([N+](=O)[O-])cc3)(OC1=O)C2(C)C (stereo not drawn) | -2.5%
CC1CCN(C(=O)Nc2ccc3nc(-c4ccco4)c(-c4ccco4)nc3c2)CC1 | ?
O=C(CC1(O)C(=O)N(CCc2ccccc2)c2ccccc21)c1ccccn1 (stereo not drawn) | -7.4%
COc1ccc(-c2noc(N3CCC(C(=O)N(C)c4ccccc4)CC3)n2)cc1 | -19.2%
CCc1ccc(C(=O)c2cn(CC(=O)NC3CCCCC3)c3nc(C)ccc3c2=O)cc1 | 4.8%
COc1ccc(C2C(C#N)=C(/N=C/N3CCN(C)CC3)OC3=C2C(=O)CC(C)(C)C3)cc1 (stereo not drawn) | -9.0%
CC(C)NC(=O)c1ccccc1NC(=O)/C=C/c1cccc([N+](=O)[O-])c1 | 2.6%
O=C(COC(=O)Cc1ccccc1[N+](=O)[O-])NC1CCCC1 | -10.2%
O=C(O)COc1ccccc1/C=N/NC(=O)c1ccc2c(c1)OCCO2 | -6.5%
CC(=O)N(C)c1ccc(NC(=O)COc2ccc(Br)cc2C)cc1 | -17.2%
CCCCNC(=O)CSc1nc2ccccc2nc1Cc1ccccc1 | 15.1%
Cc1cccc(Cn2c(=O)n(Cc3ccccc3)c(=O)c3oc4ccccc4c32)c1 | -5.8%
Cc1ccc(NC2=CC(=O)CC(C)(C)C2)cc1C | 15.9%
COc1ccc(Cl)cc1NC(=O)CSc1nc(C)cc(C)n1 | 6.5%
CCSc1nnc(NC(=O)CSc2nnc(-c3c[nH]c4ccccc34)n2CC)s1 | 5.4%
NS(=O)(=O)c1ccc(CNC(=S)NC2CCCC2)cc1 | -4.5%
Cc1nc2sc(C(c3ccc(Br)cc3)N3CC(C)OC(C)C3)c(O)n2n1 (stereo not drawn) | 7.3%
COc1ccc(OC)c(-n2c(O)cnc2Nc2nc(C)cc(C)n2)c1 | 12.3%
CCOc1ccc(NC(=O)OCCN2CCN(CCc3ccccc3)C(C)C2)cc1 (stereo not drawn) | 13.0%
C=Cc1ccc(CN2CCCN(Cc3ccc(F)cc3)S2(=O)=O)cc1 | 4.2%
Cc1ccc(C(C)(C)NC(=O)C2CCC(=O)N(C3CCCCCC3)C2)cc1 (stereo not drawn) | 2.4%
CCOc1ccc(Nc2ccc(N)c(S(=O)(=O)O)c2)cc1 | -11.9%

Seven structures from above, ordered by count of non-hydrogen atoms, lowest first:
molecule | VDR inhibitor
Cc1ccc(NC2=CC(=O)CC(C)(C)C2)cc1C | 15.9%
NS(=O)(=O)c1ccc(CNC(=S)NC2CCCC2)cc1 | -4.5%
CCOc1ccc(Nc2ccc(N)c(S(=O)(=O)O)c2)cc1 | -11.9%
COc1ccc(OC)c(-n2c(O)cnc2Nc2nc(C)cc(C)n2)c1 | 12.3%
CCCCNC(=O)CSc1nc2ccccc2nc1Cc1ccccc1 | 15.1%
CCSc1nnc(NC(=O)CSc2nnc(-c3c[nH]c4ccccc34)n2CC)s1 | 5.4%
CCOc1ccc(NC(=O)OCCN2CCN(CCc3ccccc3)C(C)C2)cc1 (stereo not drawn) | 13.0%

(more compounds)
molecule | VDR inhibitor
CSc1cccc(NC(N)=O)c1 | -4.9%
Cc1cc(=O)oc2cc(OCC(O)CN3CCN(c4ccc(F)cc4)CC3)ccc12 (stereo not drawn) | -13.4%
O=C([C@@H]1CCCN1C(=O)c1cccs1)N1CCN(S(=O)(=O)c2ccccc2F)CC1 | -5.5%
Cc1ccc(NC(=O)CN2CCN(c3ccccn3)CC2)c(Cl)c1 | 14.4%
Cc1cc(Cl)ccc1Oc1ccc(C(N)=O)cc1[N+](=O)[O-] | -25.0%
CN1CCN2c3ncccc3Cc3ccccc3C2C1 (stereo not drawn) | -1.5%&2.9%&-8.1%
CCOc1ccc(CCNC(=O)CCc2cn(Cc3ccc(C)cc3)c3ccccc23)cc1 | 7.7%
COc1ccccc1C(=O)NNC(=O)c1ccccc1 | -4.1%
C=C(C)COc1ccc(-c2ncncc2Oc2ccc(OC)cc2)c(O)c1 | 25.5%
O=S(=O)(/N=C(\c1ccccc1F)N1CCCCC1)c1ccccc1 | -0.5%

A portion of the library (hit frequency here may not be typical).
